B2AR ag – beta2AR agonists driving receptor internalization, primary screen, cell-based, FAP fluorogen, flow cytometry | Am2.2-beta2AR cells; reference of the scale not given here | Beta-2 adrenergic receptor (Homo sapiens), P07550 | 340,000 compounds, 0.43% hits | response, % (no concentration beside the values);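 active = response above a set limit, near 3 SD of response in nonfluorescent compounds, cut at about 42% in these data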;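 note: stock transfer was 100 nL into about 11 µL; a reference agonist was the positive control; negative values mostly stem from fluorescent compounds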
Target sequence (P07550 whole entry, looked up): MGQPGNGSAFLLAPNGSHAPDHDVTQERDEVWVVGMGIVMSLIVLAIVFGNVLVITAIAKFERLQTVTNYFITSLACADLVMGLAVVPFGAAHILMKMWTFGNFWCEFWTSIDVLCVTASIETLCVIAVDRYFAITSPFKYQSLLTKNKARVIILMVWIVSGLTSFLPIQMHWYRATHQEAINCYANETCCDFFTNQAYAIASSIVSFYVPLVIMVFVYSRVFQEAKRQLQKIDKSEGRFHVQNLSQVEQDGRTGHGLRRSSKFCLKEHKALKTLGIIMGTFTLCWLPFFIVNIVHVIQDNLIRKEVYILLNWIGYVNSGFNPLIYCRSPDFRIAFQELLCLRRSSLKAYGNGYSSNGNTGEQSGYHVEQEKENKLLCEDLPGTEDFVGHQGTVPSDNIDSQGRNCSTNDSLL
UCH37 DUB inh – inhibitors of human UCH37 deubiquitinase, primary screen, biochemical, Ub-AMC cleavage, fluorescence; Ubiquitin carboxyl-terminal hydrolase isozyme L5 (Homo sapiens), Q9Y5K5; inhibition, % (test concentration not listed); purified proteasome/UCH37; 330,000 compounds, 0.33% hits;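 active = mean of two replicates above 20%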;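 note: 0% = compound-free wells with enzyme and 100% = wells lacking proteasome; stock transfer was 100 nL into about 20 µL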
Target sequence (Q9Y5K5 whole entry, looked up): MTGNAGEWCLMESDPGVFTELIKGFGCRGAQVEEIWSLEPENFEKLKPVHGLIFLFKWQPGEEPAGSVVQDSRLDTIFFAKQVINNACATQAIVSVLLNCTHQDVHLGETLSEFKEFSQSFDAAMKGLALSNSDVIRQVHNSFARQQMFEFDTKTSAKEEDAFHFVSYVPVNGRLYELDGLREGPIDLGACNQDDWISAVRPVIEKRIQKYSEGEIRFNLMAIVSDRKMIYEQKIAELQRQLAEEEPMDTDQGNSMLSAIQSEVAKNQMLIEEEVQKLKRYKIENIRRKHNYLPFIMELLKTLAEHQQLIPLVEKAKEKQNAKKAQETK
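Reagent: Ub-AMC substrate; assay system: Proteasome-associated human UCH37 deubiquitinase; controls: no-proteasome and no-compound wells; read-out: % inhibition of Ub-AMC cleavage fluorescence; timing: 30 min preincubation with enzyme, 25 min cleavage at room temperature; signal: AMC fluorescence from Ub-AMC cleavage, excitation 355 nm, emission 460 nm; buffer or medium: Tris-HCl pH 7.4 plus ovalbumin, ATP-MgCl2, DTT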
LANA-H2A inh – blockers of LANA interaction with H2A/H2B – biochemical, FP readout, HTS, primary screen; inhibition, % (concentration not given with the values); 320,000 compounds, 0.6% hits; cell-free LANA-H2A/H2B peptide, fluorescence polarization; Protein LANA1 (Human herpesvirus 8 type P (isolate GK18)), Q9QR71; in the data active = inhibition mostly above about 10%, no sharp cut-off; inactive = mostly below about 6.7%;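 note: stock transfer was 7.5 nL into about 10 µL; 0% = median of vehicle wells and 100% = median of positive control wells; one replicate is shown; the record names a cut of 25% in any replicate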
Vif TR-FRET – inhibitors of Vif binding to APOBEC3G peptide, primary screen, biochemical, TR-FRET, GST-Vif 1-94, biotin-A3G peptide, dose response retest (AID 1117319) | Virion infectivity factor (Human immunodeficiency virus type 1 group M subtype B (isolate … | TR-FRET GST-Vif / biotin-A3G peptide binding; higher % means a stronger effect; test concentration not given here; strong numbers were not always called active | 260,000 compounds, 0.57% hits | inhibition, %; hits with a dose series show IC50 in µM;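 active = above the screen mean plus three standard deviations and confirmed in dose response; inconclusive = results disagree or hit not tested in dose response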;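 note: Vif residues 1-94 fused to GST binding biotinylated APOBEC3G peptide 110-148; 0% = full assay without inhibitor and 100% = GST in place of GST-Vif; retest series ran down from 100 µM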
Ecoli growth – E. coli growth inhibition, primary screen, OD600. Escherichia coli growth, 23 h; hits give low values. OD600 absorbance (test concentration not listed). 330,000 compounds, 0.21% hits;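 active = OD600 absorbance below the run mean of sample wells minus 3.6 SD, in any replicate, cut at about 0.56 in these data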;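 note: stock transfer was 300 nL into about 60 µL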
A1 inh – caspase 3/7 activation in MEF A1-2A-BIM cells, primary screen, A1 inhibitor project, cell-based, luminescence, HTS; Caspase-Glo 3/7 luminescence, 3 h; percent of clofoctol response, vehicle zero; AID 2462, 2010; 330,000 compounds, 0.066% hits; caspase activation, % (test concentration not listed);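 active = over half of replicate activation scores above 10%, or exactly half above 10 with the replicate mean above 10; inconclusive = replicate mean below 10 yet half the replicates above 10; inactive = over half of replicates below 10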;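 note: wells of about 30 µL received 50 nL stock; many hits fall short of the cut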
HNF4A DNA FP – change in binding of human HNF4A to DNA, primary screen, biochemical, fluorescence polarization, FITC-DNA. Hepatocyte nuclear factor 4-alpha (Homo sapiens), P41235. 1 h. activity change, % at 10 µM. 360,000 compounds, 0.3% hits. AID 1224865, 2016; in the data active = activity change above about 30%, passing the limit was not always enough;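 note: controls were the assay level and a saturating level of protein; the project sought stronger binding though the title names inhibitors; some compounds called inactive have numbers as strong as hits; positive values seem to mean higher polarization but the record does not say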
* = called active by the depositor; ? = inconclusive; . = not tested or not shown; & = joins results of further samples.

SMILES	B2AR ag	UCH37 DUB inh	LANA-H2A inh	Vif TR-FRET	Ecoli growth	A1 inh	HNF4A DNA FP
CCOc1ccc(CCNC(=O)c2cc(C)nc3ccccc23)cc1OCC	-1	0.6	1.3	.	0.71	0.3	6.5
COc1ccc(C(=O)NCCN2CCCC2)cc1[N+](=O)[O-]	0	1.4	1.6	-4%	0.62	0.2	1.8
COc1ccc(NC(=O)CSCC(=O)NCc2cccc(C(F)(F)F)c2)cc1	1	-0.1	.	14%	0.66	-0.1	0.5
CC1(C)CC(=O)C(N=Nc2cc(Cl)c(Cl)c(Cl)c2)=C(O)C1	-10	3.6	-0.8	-2%	0.7	0.8	0.8
CNC(=S)NNC(=O)Cc1ccc(OC)c(OC)c1	-1	-1.2	3.2	8%	0.67	0.0	1.5
COc1cccc(NC2=CC(=O)CC(C)(C)C2)c1	-1	1.7	-1.5	-1%	0.66	0.6	0.5
Cc1nnc(SCC(=O)N/N=C/c2ccc(-c3ccc(C)c(Cl)c3)o2)s1	-7	.	0.6	.	.	0.0	18
Cc1cc(-c2csc(N)n2)c(C)n1-c1ccc(Cl)c(Cl)c1	3	2.2	.	.	0.64	0.2	0.8
Cc1ccc2c(c1)N(Cc1cccc(C#N)c1)C=NS2(=O)=O	-3	0.9	-7.3	-13%	0.67	0.3	-1.8
CCc1c(C)nc(SC(C(=O)O)c2ccccc2)c(C#N)c1C (stereo not given)	7	1.7	-4.3	.	0.67	-1.6	0.3
COc1ccc(N(C(=O)c2ccco2)C(C(=O)NC2CCCC2)c2cc(OC)c(OC)c(OC)c2)cc1 (stereo not given)	-2	1.0	-7.8	-2%	0.75	0.3	-0.7
CC1C(=O)N2CCCc3cc(S(=O)(=O)Nc4ccccc4F)cc1c32 (stereo not given)	-1	2.4	-0.6	-2%	0.69	?	-3.1
CCOc1ccc(OCC)c(NC(=O)CCn2c(=O)oc3ccccc32)c1	-9	1.3	3.0	-1%	0.68	1.5	-1.2
O=C(c1ccc(S(=O)(=O)N2CCCCCC2)cc1)N1CCN(c2ccccc2)CC1	-1	3.0	-0.5	-1%	0.67	-1.4	-2.0
c1ccc2[nH]c(-c3cscn3)nc2c1	-1	2.8	-12	22%	0.66	-3.0	1.0
Cc1cccc([C@@H]2[C@@H]3C(=O)N(Cc4ccccc4)C(=O)[C@@H]3[C@]3(C)C(=O)N(c4cccc(Cl)c4)C(=O)N23)c1	1	5.1	-12	.	.	0.6	2.3
Cc1ccc(OCC(=O)Nc2cc(C(C)(C)C)on2)cc1C	8	0.5	-2.6	-5%	0.68	-0.1	-1.1
c1ccc(-c2csc3nnc(SCc4ccc5c(c4)OCO5)n23)cc1	-20	1.0	-5.9	2%	0.7	-0.3	4.2
CC(=O)Nc1ccc(SC[C@H](C)CN2CC[C@H](O)CCC2=O)cc1	3	2.0	-1.0	.	.	-0.3	0.1
C/C(=N/NC(=O)c1ccc(C(C)(C)C)cc1)c1cccnc1	-1	.	3.5	.	.	-1.0	1.8
COc1cc(C(=O)NCc2nnc(SCC(=O)c3ccc(Cl)cc3)o2)cc(OC)c1OC	-1	0.5	-0.3	7%	0.71	0.5	0.7
Cc1ncc(CO)c(/C=N/NC(=O)c2cccc(S(=O)(=O)N3CCCC3)c2)c1O	4	.	-4.8	6%	.	-0.5	4.0
Cc1ccccc1/C=N/N=C1/NC(=O)CCS1	-9	.	-4.0	-1%	.	-2.2	1.9
Cc1cccc(-n2nnnc2SCC(=O)c2cc(C)n(CC3CCCO3)c2C)c1 (stereo not given)	-3	2.2	2.6	23%	0.73	-0.1	-3.1
CCN1CCN(CCCNC(=O)c2ccc3c(=O)n(CCc4ccccc4)c(=O)[nH]c3c2)CC1	7	-18	-5.0	0%	0.68	0.9	5.2

The listing continues.
SMILES	B2AR ag	UCH37 DUB inh	LANA-H2A inh	Vif TR-FRET	Ecoli growth	A1 inh	HNF4A DNA FP
CCc1ccccc1NC(=O)C1CC(c2ccc(F)cc2)=NO1 (stereo not given)	-14	4.6	2.4	4%	0.74	0.2	-1.7
CCOC(=O)CNC(=O)CSc1ncnc2c1cnn2-c1ccccc1	10	-0.7	-4.0	-33%	0.73	-2.2	-2.2
CCC(C)(NC(=O)c1cccc(N2C(=O)CSC2c2ccccc2)c1)C(=O)Nc1ccccc1C (stereo not given)	3	2.0	-6.5	2%	0.72	0.2	-2.2
CCOC(=O)c1nc(NCc2ccccc2)c2ccccc2n1	5	-2.5	-1.1	-2%	0.64	-0.6	3.5
O=C(O)CCCC(=O)Nc1ccccc1C(=O)N1CCOCC1	0	0.3	-5.6	16%	0.71	-0.2	-0.9
CC1=NNC(=O)C1Cc1c(Cl)cccc1Cl (stereo not given)	0	4.7	-1.0	.	0.64	-0.8	1.7
Cc1cc(C)n2nc(SCc3ccccc3C(=O)O)nc2n1	1	0.1	1.2	2%	0.67	0.5	-3.8
COc1ccccc1/C=N/n1c(N)c(S(=O)(=O)c2cccs2)c2nc3ccccc3nc21	3	.	-2.2	-4%	.	.	5.8
O=C1c2ccccc2C(=O)N1CSc1nnc(Nc2ccccc2)s1	4	-2.1	3.9	16%	0.72	-0.3	-2.1
CC1(C)CC(NC(=O)C2CCN(S(=O)(=O)c3ccccc3C(F)(F)F)CC2)CC(C)(C)N1	-3	3.6	-2.3	6%	0.71	0.4	2.0
O=C(Nc1ccc(C(=O)O)cc1)/C(=C\c1ccco1)NC(=O)c1ccccc1	-2	9.1	3.1	26%	0.68	-0.7	-0.6
COc1ccc(-c2coc3cc(O[C@@H]4O[C@H](CO)[C@@H](O)[C@H](O)[C@H]4O)c(OC)cc3c2=O)cc1	0	5.2	4.8	.	.	-4.2	2.1
COc1ccc(-c2nc3ncccn3c2Nc2ccccc2)cc1	-7	-36	8.9	2%	0.7	-7.0	4.9
Cc1c(NC2=CC(=O)CC(C)(C)C2)c(=O)n(-c2ccccc2)n1C	-1	-17	0.7	29%	0.7	0.4	1.5
COc1ccc(C(CNC(=O)CN2C(=O)NC3(CCCC3)C2=O)N(C)C)cc1 (stereo not given)	2	0.2	-1.0	4%	0.7	0.0	0.0
CCc1ccc(CN2C(=O)c3ccccc3C2C(=O)NCC2CCCO2)cc1 (stereo not given)	-7	1.5	4.7	3%	0.7	0.0	0.4
CNC(=S)c1cc(C(C)(C)C)c(O)c(C(C)(C)C)c1	8	3.2	0.0	-4%	0.73	-0.2	-1.3
O=C(NCc1ccc2c(c1)OCO2)C1CCCN(S(=O)(=O)c2cccc3nonc23)C1 (stereo not given)	-7	2.4	.	-7%&5%	0.8	-0.2	12
O=C(N/N=C/c1cccnc1)c1cc(-c2ccccc2OCc2ccccc2)n[nH]1	0	.	-1.5	.	.	0.3	1.9
Cc1ccc(C)n1CCN1CCN(S(=O)(=O)c2ccc(F)cc2F)CC1	3	4.3	2.5	-8%	0.7	0.5	1.4
Cc1onc(-c2c(F)cccc2Cl)c1C(=O)N1CCc2ccccc2C1	-9	2.7	5.3	9%	0.7	-0.6	-0.2
COc1ccc(/C=C/C(=O)NC(=S)NNC(=O)[C@H]2C[C@@H]2c2ccccc2)cc1OC	6	4.5	3.5	.	0.72	0.1	4.7
O=C(NCCCN1CCOCC1)c1cc(Cl)ccc1[N+](=O)[O-]	1	0.9	0.9	0%	0.65	-0.3	-5.3
Cc1c(C(=O)N(C)c2ccc(Cl)cc2)cnn1-c1ccccc1	-11	1.7	-3.2	.	0.7	0.1	3.8
CC1(C)CC(=O)c2cc(C(=O)NNc3ccccc3)c(=O)n(-c3ccccc3)c2C1	4	4.7	-5.7	-3%	0.66	0.2	0.1

(continued)
SMILES	B2AR ag	UCH37 DUB inh	LANA-H2A inh	Vif TR-FRET	Ecoli growth	A1 inh	HNF4A DNA FP
CCn1cc(S(=O)(=O)CC(=O)Nc2cc(C)ccc2C)c2ccccc21	-1	2.0	6.9	-3%	0.68	1.5	2.2
COc1cccc(OCCCOc2ccccc2C(C)C)c1	2	0.2	-1.9	4%	0.66	-0.2	-1.4
CCN(C(=O)CN(C)Cc1c(F)cccc1Cl)c1c(N)n(Cc2ccccc2)c(=O)[nH]c1=O	-12	4.5	0.5	-6%	0.68	0.3	1.2
Cc1ccc(Nc2ccc(C(F)(F)F)cc2[N+](=O)[O-])cc1	-5	3.3	-3.4	.	0.68	0.3	3.4
COc1cc(OC)cc(C(=O)OCCNC(=O)Cn2cnc3c2c(=O)n(C)c(=O)n3C)c1	.	2.6	2.9	-9%	0.73	1.2	.
CCC(CO)Nc1nc(CN2CCCCC2)nc2scc(-c3ccccc3)c12 (stereo not given)	0	-2.5	2.5	12%	0.65	0.8	3.1
O=C(Nc1ccccc1N1CCCC1)c1cc2ccccc2o1	-12	5.1	4.8	3%	0.67	0.0	-7.8
CC1CCN(C(=O)Cn2cc(C(F)(F)F)ccc2=O)c2ccccc2S1 (stereo not given)	-10	.	-5.3	.	.	2.1	-3.0
CC(=O)c1c(N2CCOCC2)[nH]c(-c2ccccc2)nc1=S	-7	5.3	2.4	5%	0.67	0.1	5.6
COC(=O)[C@H](CCSC)NC(=O)Nc1cccc(C)c1C	-5	2.4	-1.1	-7%	0.7	0.3	-2.1
CC(Sc1nn(-c2ccc(F)cc2)c(=S)s1)C(=O)c1c(N)n(C)c(=O)n(C)c1=O (stereo not given)	-7	.	.	.	.	0.1	1.0
COc1ccc(CCn2c(O)c(C=Nc3cccc(F)c3)c(=O)[nH]c2=O)cc1OC	8	-12	-4.1	23%	0.65	0.0	1.4
O=C(/C=C/c1ccc2c(c1)OCO2)c1ccccn1	-5	5.6	0.6	?	0.66	-3.2	3.2
COc1ccc(C)cc1NC(=O)CSc1nnc(-c2cc(C)[nH]n2)n1N	-1	0.7	5.2	.	0.64	0.8	2.4
COc1ccc(CNC(=O)c2ccc3c(c2)NC(=O)C(C)S3)cc1 (stereo not given)	-3	0.3	.	-16%	0.73	.	3.7
COc1cc(NC(=O)C2CCN(S(=O)(=O)c3ccc(Cl)cc3)CC2)ccc1-n1cnnn1	5	3.2	3.4	-5%&-2%	0.71	-0.1	-1.5
O=C(O)CCc1ccc(-c2ccccc2)n1-c1cccc(O)c1	-2	-2.8	-6.1	19%	0.72	-0.2	4.1
CCCCCc1ccc(-c2nnc(N)s2)cc1	-2	0.0	-1.8	9%	0.65	1.8	2.4
CC(C)(C)c1nnc(N/N=C/c2ccc(O)cc2)n(N)c1=O	-2	.	3.6	10%	.	1.2	-0.6
CCN(C(=O)COC(=O)c1cccnc1SC)c1c(N)n(Cc2ccccc2)c(=O)[nH]c1=O	0	-2.4	1.8	-13%	0.68	0.6	-0.3
CN(C)c1nc(N2CCN(c3ccccc3)CC2)c(C#N)c(=O)o1	10	1.6	-2.4	3%	0.72	-0.4	0.1
CCCCC1CCC(c2ccc(C(N)=O)cc2)CC1 (stereo not given)	2	2.1	-0.2	5%	0.66	-0.7	2.5
O=C(NCC1CCCCC1)c1ccco1	-2	0.2	1.0	-2%	0.75	0.0	0.1

Compound activity as filed in PubChem.

Not a hit list; any-hit rate near 2.1%.
